Assay outcomes as filed in PubChem.
Mtb MenB inh – inhibitors of Mycobacterium tuberculosis MenB enzyme | P9WNP5 | inhibition, %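 (about 12 µg/mL by stock and volumes)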 | MenB enzyme assay, absorbance read-out; some hits fall short of the stated cut | 100,000 tested, 0.43% active;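 active = mean of two replicates above 30%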;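 also: 0% = no compound and 100% = wells with inactive enzyme; the first replicate is given; strong numbers were not always called active; inactives centre near -10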
Mtb MbtI inh – inhibitors of Mycobacterium tuberculosis siderophore enzyme MbtI; P9WFX0; purified MbtI enzyme, fluorescence intensity read-out; inhibition, %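 (about 17 µg/mL by stock and volumes)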; 100,000 tested, 0.89% active;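 active = above 50% in both replicates, above 80% if mildly self-fluorescent; inactive = the rest, strongly fluorescent compounds included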;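 also: 0% = mean of negative and 100% = mean of positive controls; one replicate is shown; some compounds called inactive have numbers as strong as hits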
Target sequence (P9WFX0 whole entry, looked up): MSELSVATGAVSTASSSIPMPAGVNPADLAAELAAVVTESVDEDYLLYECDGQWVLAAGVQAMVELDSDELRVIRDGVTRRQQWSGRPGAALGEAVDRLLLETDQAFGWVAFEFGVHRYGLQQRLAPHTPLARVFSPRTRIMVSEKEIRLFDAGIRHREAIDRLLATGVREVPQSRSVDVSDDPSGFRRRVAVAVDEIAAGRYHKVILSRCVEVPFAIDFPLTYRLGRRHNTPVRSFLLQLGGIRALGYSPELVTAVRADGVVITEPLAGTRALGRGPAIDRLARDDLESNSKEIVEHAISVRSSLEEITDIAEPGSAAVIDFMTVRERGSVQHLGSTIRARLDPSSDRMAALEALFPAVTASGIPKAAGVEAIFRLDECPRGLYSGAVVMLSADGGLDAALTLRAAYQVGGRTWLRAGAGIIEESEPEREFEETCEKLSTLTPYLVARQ
PV pol inh – inhibitors of poliovirus RNA polymerase binding and polymerization | P03300 | poliovirus polymerase elongation, fluorescence polarization; hits give low values | % elongation, % (compound at 16.7 µg/mL) | 150,000 tested, 0.66% active | AID 588519; in the data active = % elongation below about 90%; also: some results filed as inactive read as strong as hits
PV pol inh intensity – recorded beside PV pol inh, whose call it bears; % elongation; measured here: total intensity read-out; formula for this scale not given here;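 total fluorescence in place of polarization; lower means less elongation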
* hit, by the source's call; i = inactive; nt = not tested or not shown; & = joins results of further samples.

Abbreviations: A = Mtb MenB inh; B = Mtb MbtI inh; C = PV pol inh; D = PV pol inh intensity
Cc1cc(C(=O)NCCCn2ccnc2)cs1
  A: -13.2	B: -18.2	C: 100.0	D: 105.0
O=C(O)CC(CC(=O)Nc1nncs1)c1ccccc1 (configuration not stated)
  A: 2.0	B: nt	C: 106.0	D: 110.0
O=c1c[n+]([O-])c2ccccc2n1OCc1c(F)cccc1F
  A: 1.3	B: -15.8	C: 99.0	D: 105.0
Cc1ccc2oc(=O)c3cc(C(=O)N4CCCCC4)sc3c2c1
  A: -13.8	B: 8.2	C: 103.0	D: 100.0
O=C(O)/C=C\C(=O)NCc1cccs1
  A: -12.5	B: -7.4	C: 104.0	D: 103.0
Nc1nc2c3cccc4cccc(c(=O)n2n1)c43
  A: -2.7	B: -8.2	C: 92.0	D: 111.0
O=C(NCc1nnc(SCC(=O)N2CCc3ccccc32)o1)c1ccccc1
  A: 1.9	B: 3.0	C: 96.0	D: 99.0
Cc1onc(-c2ccccc2)c1C(=O)NCCN1CCNC1=O
  A: -8.2	B: 6.2	C: 103.0	D: 96.0
Cc1cc(Nc2ccc(N3CCCC3)cc2)n2c(nc3ccccc32)c1C#N
  A: -19.1	B: -7.0	C: 102.0	D: 102.0
COc1ccc(-n2nnc(C(N)=O)c2N)cc1
  A: -47.8	B: 1.2	C: 104.0	D: 99.0
CCOC(=O)c1cccc(NC(=O)C2CCCCC2)c1
  A: -21.1	B: -10.5	C: 105.0	D: 105.0
Cc1oc2ncnc(N3CCC(C(N)=O)CC3)c2c1C(=O)O
  A: -1.5	B: 3.9	C: 99.0	D: 103.0
Cc1oc(-c2ccccc2)nc1C(=O)N(C)Cc1cccc(Cl)c1Cl
  A: -22.7	B: -1.6	C: 105.0	D: 105.0
COC(=O)Cn1c(C(=O)OC)ccc1-c1ccco1
  A: -11.1	B: -21.3	C: 103.0	D: 108.0
COC(=O)C1=C(N)OC2=C(CCCC2=O)C1c1cccnc1 (configuration not stated)
  A: 0.5	B: nt	C: 94.0	D: 90.0
O=C(Nc1ccccc1C(F)(F)F)N1CCCCCC1
  A: -3.9	B: -12.4	C: 101.0	D: 103.0
O=P(c1ccccc1)(c1ccccc1)C(O)c1ccncc1 (configuration not stated)
  A: -17.4	B: 5.2	C: 100.0	D: 66.0
O=C(CN1C(=O)COc2ccccc21)NCc1ccco1
  A: -14.8	B: 6.7	C: 102.0	D: 103.0
CN(CC(=O)NC1(C#N)CCCC1)Cc1cccc(F)c1
  A: -4.8	B: 0.0	C: 102.0	D: 107.0
CC(NC(=O)Nc1ccccc1)c1ccccc1 (configuration not stated)
  A: 15.5	B: 0.2	C: 100.0	D: 100.0
O=C(CCCc1nc2ccccc2c(=O)[nH]1)Nc1ccnn1C1CCCC1
  A: 7.7	B: 9.1	C: 105.0	D: 100.0
CC1=NNC(=O)C1Cc1ccccc1 (configuration not stated)
  A: 6.7	B: -4.0	C: 105.0	D: 106.0
O=C(CSc1ncnc2c1nnn2Cc1ccccc1)OCc1ccccc1
  A: 5.5	B: 1.8	C: 97.0	D: 102.0
CCOc1ccc2c(c1)=C(c1sc(N)nc1O)C(=O)N=2
  A: -95.3	B: -6.7	C: 101.0	D: 98.0
CCc1nn(C(C)C(=O)NCCN2CCN(c3cccc(C)c3C)CC2)c(=O)c2cc3occc3n12 (configuration not stated)
  A: -0.6	B: 11.1	C: 106.0	D: 100.0

Full records, looked up by structure:
O=c1c[n+]([O-])c2ccccc2n1OCc1c(F)cccc1F reads Mtb MenB inh = 1.3; Mtb MbtI inh = -15.8; PV pol inh = 99.0; PV pol inh intensity = 105.0
Cc1oc2ncnc(N3CCC(C(N)=O)CC3)c2c1C(=O)O reads Mtb MenB inh = -1.5; Mtb MbtI inh = 3.9; PV pol inh = 99.0; PV pol inh intensity = 103.0

Shown with values under each structure: part of the list above.
The line under a structure holds: Mtb MenB inh, Mtb MbtI inh, PV pol inh, PV pol inh intensity
> O=C(O)CC(CC(=O)Nc1nncs1)c1ccccc1 (configuration not stated)
    2.0, nt, 106.0, 110.0
> O=c1c[n+]([O-])c2ccccc2n1OCc1c(F)cccc1F
    1.3, -15.8, 99.0, 105.0
> Cc1ccc2oc(=O)c3cc(C(=O)N4CCCCC4)sc3c2c1
    -13.8, 8.2, 103.0, 100.0
> O=C(O)/C=C\C(=O)NCc1cccs1
    -12.5, -7.4, 104.0, 103.0
> Nc1nc2c3cccc4cccc(c(=O)n2n1)c43
    -2.7, -8.2, 92.0, 111.0

Continued.
Abbreviations: A = Mtb MenB inh; B = Mtb MbtI inh; C = PV pol inh; D = PV pol inh intensity
COc1ccc(-n2ccn3c(CCC(=O)O)nnc3c2=O)cc1
  A: 1.1	B: 12.6	C: 98.0	D: 102.0
OC(c1nc2ccc(F)cc2[nH]1)C(O)c1nc2ccc(F)cc2[nH]1 (configuration not stated)
  A: -8.6	B: nt	C: 104.0	D: 103.0
CSCCC1NC(=S)N(Cc2ccccc2)C1=O (configuration not stated)
  A: -30.2	B: nt	C: 103.0	D: 105.0
Cc1ccc2cc(/C=C(\C#N)C(N)=O)c(N(C)C)nc2c1
  A: -73.0	B: 11.0	C: 126.0	D: 151.0
O=C(NCCC(=O)N1CCOCC1)c1ccc(Cl)cc1
  A: -19.6	B: -13.6	C: 101.0	D: 97.0
COc1ccc2c(c[n+](C)c3c4cc5c(cc4ccc23)OCO5)c1OC
  A: nt	B: i	C: 103.0	D: 99.0
O=C(CNC(=O)C1CCCCC1)Nc1ccc(Cl)cc1
  A: nt	B: -1.4	C: 104.0	D: 108.0
COc1ccc(N2CCN(CCCNC(=O)Nc3ccccc3)CC2)cc1
  A: -14.9	B: -10.1	C: 110.0&102.0	D: 109.0&102.0
CCN(CC)S(=O)(=O)c1ccc2oc(SCc3cn4c(C)cccc4n3)nc2c1
  A: -14.9	B: -10.7	C: 107.0	D: 112.0
O=C(Cn1ncn2c(cc3ccccc32)c1=O)NC1CC1
  A: -4.3	B: 4.2	C: 99.0	D: 99.0
CN1C(=O)C[C@H](C(=O)O)[C@H]1c1cccnc1
  A: -7.2	B: nt	C: 97.0	D: 96.0
COc1ccc(-c2cc(C(F)(F)F)nc(S(=O)(=O)CCC(=O)NCc3cccnc3)n2)cc1
  A: 2.6	B: i	C: 101.0	D: 102.0
CN1CCC(NC(=O)c2cccc(C(F)(F)F)c2)CC1
  A: -20.3	B: -22.5	C: 102.0	D: 102.0
CSc1ccccc1NC(=O)COC(=O)c1cccc2ccccc12
  A: nt	B: 1.4	C: 99.0	D: 102.0
CC(C)(C)c1csc(Cc2ccccc2Cl)n1
  A: -6.1	B: -5.8	C: 99.0	D: 105.0
COc1ccc(/C=C/C(=O)Nc2ccc(C)c(C)c2)cc1OC
  A: nt	B: 9.1	C: 99.0	D: 99.0
O=C(Nc1ccncc1)C1COc2ccccc2O1 (configuration not stated)
  A: -1.3	B: nt	C: 105.0	D: 111.0
Cc1ccc(N2C(N)=C(C#N)C(c3ccccc3)C3=C2CC(C)(C)CC3=O)cc1 (configuration not stated)
  A: -20.2	B: nt	C: 106.0	D: 102.0
Cc1cc(C)c(Cn2c(SCc3cccc(F)c3)nc3ccncc32)c(C)c1
  A: -33.7	B: 7.8	C: 105.0	D: 103.0
CN(C(=O)CSc1ncnc2ccccc12)c1ccccc1
  A: nt	B: 0.4	C: 101.0	D: 104.0
C=CC(=O)n1nccc1-c1sc(COc2cccc(Cl)c2)nc1C
  A: 9.5	B: 58.4	C: 103.0	D: 107.0
CN(C)S(=O)(=O)c1cccc(COC(=O)Cn2cnc3ccccc3c2=O)c1
  A: -19.4	B: 15.8	C: 105.0	D: 102.0
Cc1ccc(-c2cc(-c3ccccc3)c(C#N)c(S(=O)Cc3ccccc3)n2)cc1 (configuration not stated)
  A: -21.9	B: -8.0	C: 104.0	D: 101.0
O=C(O)CCCC(=O)Nc1cccc(NC(=O)c2ccco2)c1
  A: -6.8	B: nt	C: 104.0	D: 106.0
Cc1c(CN2CCc3ccccc3C2)sc2ccccc12
  A: 14.4	B: -6.7	C: 109.0	D: 116.0
CCOC(=O)N1CCN(C(=O)CSc2nc3c([nH]c4ccccc43)c(=O)n2-c2ccc(OCC)cc2)CC1
  A: -18.5	B: 4.8	C: 102.0	D: 101.0
Cc1c(NC(=O)C(C)OC(=O)c2ccc3c(c2)OCO3)c(=O)n(-c2ccccc2)n1C (configuration not stated)
  A: -23.5	B: 9.9	C: 105.0	D: 108.0

Just Mtb MbtI inh and PV pol inh intensity, for some of the entries so far:
SMILES | Mtb MbtI inh | PV pol inh intensity
CC1=NNC(=O)C1Cc1ccccc1 (configuration not stated) | -4.0 | 106.0
O=C(CSc1ncnc2c1nnn2Cc1ccccc1)OCc1ccccc1 | 1.8 | 102.0
CCOc1ccc2c(c1)=C(c1sc(N)nc1O)C(=O)N=2 | -6.7 | 98.0
